Screens deposited in PubChem by several laboratories.
FGF22 binding: binders of human FGF22 protein, primary screen, FGF22 synaptogenesis inhibitor project, biophysical, thermal shift, single point | recombinant FGF22 thermal shift, SYPRO orange fluorescence; percent of sucrose octasulfate shift, DMSO zero | 340,000 tested, 1.5% active | Fibroblast growth factor 22 (Homo sapiens), Q9HCT0 | calls only at 9.99 µM;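 active means melting point raised past a set limit in the mean and every replicate; inconclusive means no clear call; three in four hits are not shown here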
Target sequence (Q9HCT0 whole entry, looked up): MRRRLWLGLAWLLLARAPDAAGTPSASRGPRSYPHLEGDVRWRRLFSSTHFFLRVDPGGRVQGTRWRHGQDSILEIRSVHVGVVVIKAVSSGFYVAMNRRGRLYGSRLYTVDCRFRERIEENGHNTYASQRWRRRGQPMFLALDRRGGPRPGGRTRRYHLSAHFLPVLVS
Vif TR-FRET: inhibitors of Vif binding to APOBEC3G peptide, primary screen, biochemical, TR-FRET, GST-Vif 1-94, biotin-A3G peptide, dose response retest (AID 1117319); TR-FRET GST-Vif / biotin-A3G peptide binding; higher % means a stronger effect; test concentration not given here; strong numbers were not always called active; inhibition, %; hits with a dose series show IC50 in µM; 260,000 tested, 0.57% active;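 active means above the screen mean plus three standard deviations and confirmed in dose response; inconclusive means results disagree or hit not tested in dose response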;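 further: Vif residues 1-94 fused to GST binding biotinylated APOBEC3G peptide 110-148; 0% = full assay without inhibitor and 100% = GST in place of GST-Vif; retest series ran down from 100 µM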
MLL AF4-AF9 inh: inhibitors of AF4 peptide binding to AF9, primary screen, biochemical, AlphaScreen, biotin-AF4 peptide, FLAG-AF9, single point; 350,000 tested, 0.47% active; inhibition, % at 10 µM; AID 651704, 2012;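 active means every replicate reaching a set inhibition limit, whatever the replicate mean, cut at about 25% in these data; inconclusive means mean inhibition reaches that limit but some replicates miss it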;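 further: 0% = plate neutral control median and 100% = total signal loss; the record names both 10 and 1 µM as test concentration; the first replicate is given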
Target sequence (P42568 whole entry, looked up): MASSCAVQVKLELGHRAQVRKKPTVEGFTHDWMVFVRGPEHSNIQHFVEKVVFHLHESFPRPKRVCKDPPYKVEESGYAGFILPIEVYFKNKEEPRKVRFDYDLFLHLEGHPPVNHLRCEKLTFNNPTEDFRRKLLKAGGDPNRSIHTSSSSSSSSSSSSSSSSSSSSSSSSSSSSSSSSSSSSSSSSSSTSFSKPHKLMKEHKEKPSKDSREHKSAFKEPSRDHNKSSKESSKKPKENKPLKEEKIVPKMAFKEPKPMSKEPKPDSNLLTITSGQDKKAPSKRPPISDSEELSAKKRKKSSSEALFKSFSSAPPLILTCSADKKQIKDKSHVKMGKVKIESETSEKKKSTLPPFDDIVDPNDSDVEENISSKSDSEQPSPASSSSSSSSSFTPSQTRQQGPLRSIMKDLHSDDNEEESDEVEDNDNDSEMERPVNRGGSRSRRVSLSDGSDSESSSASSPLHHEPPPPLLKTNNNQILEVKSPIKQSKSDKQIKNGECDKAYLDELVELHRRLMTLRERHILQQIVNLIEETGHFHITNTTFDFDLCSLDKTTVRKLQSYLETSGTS
RanGTP-Imp inh: inhibitors of RanGTP-importin-beta interaction, primary screen, biochemical, FRET, CFP-Ran, YFP-importin-beta, homogeneous. cell-free CFP-Ran/YFP-importin-beta FRET ratio. inhibition, % (concentration not given with the values). AID 2216, 2009. 300,000 tested, 1.1% active;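 active means most replicates above 15%; inconclusive means exactly half above 15%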;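 further: 0% = DMSO wells and 100% = Ran loaded with GDP instead of GTP; wells of about 40 µL received 100 nL stock; the first replicate is given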
UCH37 DUB inh: inhibitors of human UCH37 deubiquitinase, primary screen, biochemical, Ub-AMC cleavage, fluorescence. purified proteasome/UCH37. inhibition, % (concentration not given with the values). 330,000 tested, 0.33% active;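 active means mean of two replicates above 20%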;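 further: 0% = compound-free wells with enzyme and 100% = wells lacking proteasome; stock transfer was 100 nL into about 20 µL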
Target sequence (Q9Y5K5 whole entry, looked up): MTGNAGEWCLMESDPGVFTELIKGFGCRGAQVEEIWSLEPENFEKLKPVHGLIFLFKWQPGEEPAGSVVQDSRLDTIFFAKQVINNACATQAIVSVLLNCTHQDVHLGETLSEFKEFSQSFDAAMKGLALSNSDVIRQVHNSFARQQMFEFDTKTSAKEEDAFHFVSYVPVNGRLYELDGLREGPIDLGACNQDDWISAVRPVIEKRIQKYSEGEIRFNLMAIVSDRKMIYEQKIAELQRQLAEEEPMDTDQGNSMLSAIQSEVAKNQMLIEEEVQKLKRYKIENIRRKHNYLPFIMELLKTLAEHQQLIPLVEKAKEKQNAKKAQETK
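Schedule: 30 min plus 25 min, room temperature / Material: human UCH37 within purified proteasomes / Technique: AMC fluorescence intensity at 355/460 nm / Buffer or medium: pH 7.4 Tris-HCl (50 mM) with ovalbumin, ATP-MgCl2, DTT / Controls: wells without proteasome as full block, compound-free enzyme plus substrate as uninhibited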
HNF4A DNA FP: change in binding of human HNF4A to DNA, primary screen, biochemical, fluorescence polarization, FITC-DNA; Hepatocyte nuclear factor 4-alpha (Homo sapiens), P41235; 1 h; activity change, % at 10 µM; 360,000 tested, 0.3% active; AID 1224865, 2016; in the data active means activity change above about 30%, passing the limit was not always enough;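 further: controls were the assay level and a saturating level of protein; the project sought stronger binding though the title names inhibitors; some compounds called inactive have numbers as strong as hits; positive values seem to mean higher polarization but the record does not say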
E coli growth: E. coli growth inhibition, primary screen, OD600. Escherichia coli growth, 23 h; stronger effect = lower value. OD600 absorbance (test concentration not listed). 330,000 tested, 0.21% active;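 active means OD600 absorbance below the run mean of sample wells minus 3.6 SD, in any replicate, cut at about 0.56 in these data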;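 further: stock transfer was 300 nL into about 60 µL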
Active calls of the source: *; i = inactive; ? = inconclusive; · = no result given. This is a subset; count on the stated rates, not on these rows.

SMILES | FGF22 binding | Vif TR-FRET | MLL AF4-AF9 inh | RanGTP-Imp inh | UCH37 DUB inh | HNF4A DNA FP | E coli growth
CC(C)(C)OC(=O)N1CCCC1C(=O)NC(Cc1ccccc1)C(=O)O (stereo unspecified) | · | -2% | 1.0 | 1.0 | 0.7 | -3.3 | 0.7
CCn1cc(/C=N\NC(=O)c2c[nH]c3ccccc23)c(C)n1 | · | 3% | · | -1.9 | · | 0.5 | ·
CCc1c(C(=O)Nc2ccccc2C(N)=O)csc1C | i | -7% | 0.9 | 4.3 | 2.0 | 4.4 | 0.7
O=C(N/N=C\c1ccc(F)cc1)c1ccc(F)cc1 | i | ? | -0.8 | -4.3 | · | 1.4 | ·
O=C(CSc1ccc(-c2ccco2)nn1)NCc1ccc(F)cc1 | · | · | · | 0.3 | 0.3 | -1.6 | 0.65
CC1CCC(NC(=O)c2ccc(/C=C3\Oc4ccccc4N(C)C3=O)cc2)CC1 (stereo unspecified) | · | · | · | 7.9 | i | · | 0.67
COc1ccc2c(c1OC)C(=O)OC2 | i | 3% | -2.7 | 3.3 | 2.4 | 4.1 | 0.72
Cn1c(=O)c(S(=O)(=O)C(C)(C)C)c(O)c2ccccc21 | · | · | · | -2.7 | -2.4 | 0.0 | 0.71
COc1cc(S(=O)(=O)N2CCN(C)CC2)ccc1Cl | i | 6% | 3.0 | 5.0 | 1.0 | 1.1 | 0.68
O=C(Nc1ccc(N2CCCC2)cc1)c1ccc(Br)cc1 | i | · | 3.7 | 2.0 | 1.3 | 3.2 | 0.66

One compound at a time (already shown). Order of values: FGF22 binding, Vif TR-FRET, MLL AF4-AF9 inh, RanGTP-Imp inh, UCH37 DUB inh, HNF4A DNA FP, E coli growth
O=C(CSc1ccc(-c2ccco2)nn1)NCc1ccc(F)cc1 reads ·, ·, ·, 0.3, 0.3, -1.6, 0.65
CCn1cc(/C=N\NC(=O)c2c[nH]c3ccccc23)c(C)n1 reads ·, 3%, ·, -1.9, ·, 0.5, ·
COc1cc(S(=O)(=O)N2CCN(C)CC2)ccc1Cl reads i, 6%, 3.0, 5.0, 1.0, 1.1, 0.68
O=C(N/N=C\c1ccc(F)cc1)c1ccc(F)cc1 reads i, ?, -0.8, -4.3, ·, 1.4, ·
CCc1c(C(=O)Nc2ccccc2C(N)=O)csc1C reads i, -7%, 0.9, 4.3, 2.0, 4.4, 0.7

The listing continues.
SMILES | FGF22 binding | Vif TR-FRET | MLL AF4-AF9 inh | RanGTP-Imp inh | UCH37 DUB inh | HNF4A DNA FP | E coli growth
COc1ccc(CN(CCC(C)C)S(=O)(=O)c2ccccc2Br)c(OC)c1 | i | -1% | -5.4 | · | 0.1 | 1.7 | 0.72
COC(=O)Nc1c(C)nn(Cc2ccccc2C)c1C | i | 3% | 4.7 | -0.9 | 6.6 | -0.4 | 0.61
COc1ccc([C@@H]2CC(=O)[C@@H]3CN(S(=O)(=O)c4ccc(C)cc4)[C@H](c4ccccc4)C[C@@H]3N2S(=O)(=O)c2ccccc2)cc1 | i | · | -0.6 | · | · | 2.8 | ·
O=C(NCc1ccccc1Cl)C1CCCN(C(=O)Nc2ccc(F)cc2)C1 (stereo unspecified) | i | -3% | 0.4 | -0.7 | 1.0 | 2.5 | 0.66
Cc1ccc(CONC(=O)c2ccc(C)cc2)cc1 | i | 2% | 0.3 | · | 4.1 | 3.6 | 0.68
CCC(C)c1ccc(OCC(=O)Nc2ccc3[nH]c(=O)[nH]c3c2)cc1 (stereo unspecified) | · | · | · | 1.4 | 1.5 | -2.2 | 0.73
O=C(CCNC(=O)c1ccc([N+](=O)[O-])cc1)NNC(=O)c1ccncc1 | i | · | -1.4 | 0.0 | 0.8 | -1.6 | 0.7
O=C(/C=C/Nc1ccccc1)C(F)(F)F | i | 4% | 0.5 | 3.5 | 12 | 2.2 | 0.66
Cc1ccccc1CN(c1ccc(C(=O)N2CCCC2)cc1)S(C)(=O)=O | i | -1% | -9.8 | -0.6 | 3.7 | -0.5 | 0.7
O=C(c1n[nH]c(=O)c2ccccc12)N1CCN(Cc2ccc3c(c2)OCO3)CC1 | i | 4% | -0.3 | 5.3 | 2.4 | -3.2 | 0.66
CC1(C)CC(=O)c2c(oc3cc(O)c(O)cc23)C1 | · | 20% | · | -0.1 | -0.5 | 2.7 | 0.74
O=S(=O)(Nc1ccccc1Cl)c1cc(NC(=S)NCCN2CCOCC2)ccc1Cl | i | · | 0.8 | -5.7 | 1.7 | -3.8 | 0.65
CC(CC(=O)N1CCN(c2ccccc2)CC1)S(=O)(=O)c1ccc2c(c1)NC(=O)CS2 (stereo unspecified) | i | · | -1.7 | -1.9 | 4.8 | -3.9 | 0.69
COc1ccc(N2C(=O)CC(SCc3ccc(Cl)cc3)C2=O)cc1 (stereo unspecified) | i | 15% | -3.4 | 0.3 | 5.1 | -2.1 | 0.64
NC(=O)c1nnn(-c2cccc(C(F)(F)F)c2)c1-c1ccccc1 | i | · | 5.1 | -1.4 | 7.0 | -3.0 | 0.69
Cc1c(C)c2c(OCC(=O)N[C@@H](Cc3ccccc3)C(=O)O)cc3c(c2oc1=O)CCC(C)(C)O3 | i | · | -2.3 | 0.3 | -461 | 3.0 | 0.73
Cc1nc2sccn2c(=O)c1S(=O)(=O)NCc1ccccc1Cl | i | · | 1.0 | 2.0 | -12 | -0.1 | 0.72
COc1ccc(-n2c(SC)nnc2-c2c[nH]c3ccccc23)cc1 | i | -4% | 1.3 | -0.8 | 2.3 | 8.4 | 0.7
COc1cc(NC(=S)NNC(=O)C(C)(C)O)cc(OC)c1 | i | 5% | 0.3 | ? | 1.4 | 4.1 | 0.65
O=C(COC(=O)/C=C/c1ccc(Cl)cc1)Nc1ccccc1-c1ccccc1 | · | 12% | · | -2.1 | 3.9 | -1.8 | 0.72
COc1cccc(-c2cc(C(=O)O)no2)c1 | · | 23% | · | 2.4 | 1.0 | 2.9 | 0.71
CC(c1n[nH]c(=S)n1Cc1ccccc1)N(C)C (stereo unspecified) | i | -1% | -4.7 | 4.0 | 4.0 | -1.9 | 0.72
CCOC(=O)C1CCCN(C(=O)c2ccc(CNS(=O)(=O)c3ccc(C)cc3)cc2)C1 (stereo unspecified) | i | 23% | -2.1 | -1.6 | 3.1 | -1.6 | 0.73
COc1ccc(C(=O)Nn2c(SCC(=O)c3ccc(Cl)cc3)nc3ccccc3c2=O)cc1 | · | -5% | · | 1.3 | 1.9 | 1.3 | 0.75
Cc1cc(OCCN2CCN(S(=O)(=O)c3ccccc3F)CC2)ccc1C(C)C | i | 9% | 3.9 | · | 3.4 | 0.6 | 0.72
CCOC(=O)C1(C)CCCN(C(=O)c2ccc(F)c(Cl)c2)C1 (stereo unspecified) | i | · | -0.2 | · | · | 4.7 | ·
CC1(C)SC(=S)N(c2ccccc2)C1/[N+]([O-])=C/c1cccc([N+](=O)[O-])c1 (stereo unspecified) | i | -11% | 6.2 | 2.9 | 2.8 | -2.8 | 0.68
CC(C(=O)NC1CCCC1)N(C(=O)CS(=O)CC(=O)Nc1ccc(F)cc1)c1ccc2c(c1)OCCO2 (stereo unspecified) | i | -4% | -46 | -1.3 | 3.5 | -4.5 | 0.71
CCOc1cc(N2CCOCC2)c(OCC)cc1NC(=O)CN1CCN(Cc2ccc3c(c2)OCO3)CC1 | i | -4% | 12 | -2.8 | 1.7 | 2.8 | 0.64
N#Cc1c(NC(=O)Cn2cnc3ccccc3c2=O)oc(-c2ccccc2)c1-c1ccccc1 | · | -1% | · | 4.8 | -7.7 | 0.4 | 0.79
CC(c1ccccc1)N(C)CC(=O)NC(=O)NCCC1=CCCCC1 (stereo unspecified) | i | 75% | 2.7 | · | 1.9 | -0.2 | 0.69
COc1nccc(C(F)(F)F)c1C(=O)NC(=O)Nc1c(C)cccc1C | i | ? | -3.3 | 0.6 | 0.1 | 2.9 | 0.61
CCCn1c(N)c(C(=O)CSc2nnc(C3CC3)n2Cc2ccccc2)c(=O)[nH]c1=O | · | 1% | · | 24 | 2.1 | -0.4 | 0.74
COc1ccc(/C=C(/NC(=O)c2ccccc2)C(=O)N2CCCCC2)cc1 | i | · | -1.5 | 1.3 | -0.3 | 4.2 | 0.67
CCOP(=O)(OCC)/C(C#N)=C/c1ccc(-c2ccc(F)cc2F)o1 | i | · | ? | 10 | -3.0 | -2.2 | 0.64
Cc1ccc(NC(=O)C[n+]2ccn(C3=C([O-])c4ccccc4C3=O)c2)cc1 | i | -4% | 0.4 | 0.8 | 6.9 | -0.1 | 0.67
CC1CCCCN1CC(=O)Nc1ccccc1Sc1ccccc1 (stereo unspecified) | · | -7% | · | 1.9 | 3.1 | 0.5 | 0.64
COc1ccc(NC(=O)CC2C(=O)NCCN2C(=O)c2ccccc2)cc1 (stereo unspecified) | i | -17% | 0.5 | -3.3 | 2.0 | 4.4 | 0.68
COc1ccc2c(c1)C(C)CC(C)(C)N2C(=O)NC1CCCCC1 (stereo unspecified) | · | 14% | · | -0.4 | 0.4 | 2.2 | 0.7
NC(=O)c1nsc(C(=O)N(c2cccc(F)c2)C(C(=O)NCC2CCCO2)c2c[nH]c3ccccc23)c1N (stereo unspecified) | i | · | 1.7 | ? | -24 | -0.6 | 0.62
CCCSc1nc2c(cnn2-c2ccc(F)cc2)c(=O)[nH]1 | i | -4% | -1.0 | -15 | 4.2 | 1.2 | 0.71
Cc1ccc(S(=O)(=O)N[C@@H](CC(C)C)C(=O)N2CCC(C(=O)N[C@@H](Cc3ccccc3)C(=O)O)CC2)cc1 | i | · | -2.8 | -4.5 | 1.5 | -0.4 | 0.66
COc1cc(C2SCC(=O)N2c2nnc(C34CC5CC(CC(C5)C3)C4)s2)cc(OC)c1OC (stereo unspecified) | · | -6% | · | 1.2 | 1.0 | -3.2 | 0.69
Cc1ccc(C(=O)Nc2nc3nc(-c4ccccc4)cc(=O)n3[nH]2)cc1 | · | ? | · | -4.2 | -3.8 | -1.5 | 0.72
CCCOc1ccc(C(=O)CCNc2ccc(C)c(Cl)c2)cc1 | · | -3% | · | -1.1 | -1.2 | -0.1 | 0.72
CCC(C)c1ccc(NC(=O)CC(C)=O)cc1 (stereo unspecified) | · | -1% | · | -1.9 | 3.3 | -1.0 | 0.64
COc1ccc2nc(-n3c(O)c(C4=c5ccccc5=NC4=O)[nH]c3=S)sc2c1 | i | · | -29 | -9.7 | 9.6 | -40 | 0.72
O=C(Cc1ccc([N+](=O)[O-])cc1)N1CCN=C1SCc1ccccc1 | i | · | 4.0 | -0.2 | 4.4 | 0.1 | 0.7
COc1cc(/C=N/N2CCN(c3ccccc3)CC2)cc(OC)c1OC(C)=O | i | · | 26* | -1.1 | · | 0.8 | ·
O=C(Nc1nccs1)c1ccc(Cl)nc1 | i | -17% | -0.4 | -2.6 | 7.5 | 2.5 | 0.69
Later entries
SMILES | FGF22 binding | Vif TR-FRET | MLL AF4-AF9 inh | RanGTP-Imp inh | UCH37 DUB inh | HNF4A DNA FP | E coli growth
CSc1ccccc1C(=O)NC1CC2CCC1C2 (stereo unspecified) | · | -4% | · | ? | 1.2 | -2.7 | 0.71
O=C(Cc1cccc(NC(=O)C2CCN(C(=O)C3CC3)CC2)c1)Nc1cccc(C(=O)N2CCCCC2)c1 | i | 0% | -0.8 | · | 2.7 | -2.8 | 0.69
CC(=O)Oc1ccc2c(c1)C(=O)CCCCCC(=O)O2 | i | · | 0.2 | · | · | -0.7 | ·
Cc1ccc(C(=O)N(CN2CCCC2=O)c2ccccc2)cc1 | i | 22% | -0.3 | 7.5 | -0.5 | 0.0 | 0.7
